High-throughput results deposited in PubChem by National Center for Advancing Translational Sciences (NCATS).
SmPrx2 inh = Schistosoma mansoni Prx2 inhibition; S. mansoni Prx2 activity coupled to TGR/GSH (TGR is thioredoxin glutathione reductase), NADPH fluorescence loss, qHTS; some inactives read as strong as hits; Potency, µM; 65,000 compounds, 0.07% hits; active means full or partial inhibition curve with a strong effect at the top dose; inconclusive means weaker partial or single-point curve; inactive means no accepted curve; also: series up to 57 µM; many of its hits are not listed in these tables
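Activity is read as the drop in NADPH fluorescence (365/450 nm), recorded every 30 sec for 8 min after H2O2 addition. Prx2 is coupled to TGR-driven NADPH oxidation through glutathione, in phosphate buffer pH 7.4.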
LT uptake inh = inhibitors of anthrax lethal toxin internalization; Cells, anthrax lethal toxin internalization, FRET ratio (460/530); Potency, µM (highest dose often 40 µM), for the others: at the top dose activity change, negative = inhibition, most hits filed as inhibitors; 70,000 compounds, 0.67% hits; active = well fitted falling ratio curve with the 530 nm signal flat; inconclusive = other ratio curves, or a change in one channel alone; inactive = flat curves in the ratio and both channels; the % refers to the ratio; also: % is scaled to controls: 0 for no effect and ±100 for the full control effect; nearly all actives have a fitted effect of over 50% in size; tested in ME-180 cells; beta-lactamase reporter
Numbers without * were called inactive; u = inconclusive; x = no result given; [ ] = dose if it differs, or a comment. Potency is read from the fitted curve at half-maximal effect. Only part of the results is shown (hit frequency here may not be typical).

smiles	SmPrx2 inh	LT uptake inh
O=C(O)CC(CNS(=O)(=O)c1ccccc1)c1ccccc1 (configuration not stated)	>57	-7%
O=C(c1cc(C2CC2)on1)N1CCOCC1	>57	6%
O=c1c2c3c(sc2n(CCN2CCCC2)c(=O)n1Cc1ccco1)CCCCC3	>57	u
CN(C)CC(O)COc1cc2ccccc2cc1C(=O)N1CCCCC1 (configuration not stated)	>57	-3%
O=C(CSc1nncs1)N1c2ccccc2Sc2ccccc21	>57	-12%
COc1cccc(Nc2ncccc2C(=O)O)c1	>57	4%
CCC(=O)Nc1ccccc1C(=O)N1CCN(Cc2ccccc2)CC1	x	-8%
Cn1c(=O)c2c(nc(CN3CCN(c4ccccc4F)CC3)n2CCCc2ccccc2)n(C)c1=O	x	-6%

Next part; the last 7 above are carried over.
smiles	SmPrx2 inh	LT uptake inh
O=C(c1cc(C2CC2)on1)N1CCOCC1	>57	6%
O=c1c2c3c(sc2n(CCN2CCCC2)c(=O)n1Cc1ccco1)CCCCC3	>57	u
CN(C)CC(O)COc1cc2ccccc2cc1C(=O)N1CCCCC1 (configuration not stated)	>57	-3%
O=C(CSc1nncs1)N1c2ccccc2Sc2ccccc21	>57	-12%
COc1cccc(Nc2ncccc2C(=O)O)c1	>57	4%
CCC(=O)Nc1ccccc1C(=O)N1CCN(Cc2ccccc2)CC1	x	-8%
Cn1c(=O)c2c(nc(CN3CCN(c4ccccc4F)CC3)n2CCCc2ccccc2)n(C)c1=O	x	-6%
COC(=O)c1cc2sc(Cl)cc2n1CC(=O)Nc1ccc(OC)c(OC)c1OC	>57	-8%
CC1CC(C)(C)NCCNC(C)CC(C)(C)NCCN1 (configuration not stated)	x	-9%
CCOC(=O)c1ccc(N2C(=O)CC(C3CCCO3)C2=O)cc1 (configuration not stated)	x	4%
Nc1c(S(=O)(=O)c2cccc(Cl)c2)c2nc3ccccc3nc2n1CCN1CCOCC1	>57	u
Cc1ccc(N(CC(=O)NCC2CCCO2)S(C)(=O)=O)cc1Cl (configuration not stated)	>57	6%
C[C@@H](CN1CCC(Cc2ccccc2)CC1)[C@@H](O)c1ccc(O)cc1	>57	u
COC(=O)C1=C(N)Oc2cc(C)n(CC3CCCO3)c(=O)c2C1c1ccccc1 (configuration not stated)	>57	u
COc1ccc(NC(=O)Nc2ccc(N(C)C)cc2)cc1	>57	-3%

An excerpt of these results, with each value named.
CCOC(=O)c1ccc(N2C(=O)CC(C3CCCO3)C2=O)cc1 (configuration not stated)
  SmPrx2 inh: x
  LT uptake inh: 4%
Nc1c(S(=O)(=O)c2cccc(Cl)c2)c2nc3ccccc3nc2n1CCN1CCOCC1
  SmPrx2 inh: >57
  LT uptake inh: u
Cc1ccc(N(CC(=O)NCC2CCCO2)S(C)(=O)=O)cc1Cl (configuration not stated)
  SmPrx2 inh: >57
  LT uptake inh: 6%
C[C@@H](CN1CCC(Cc2ccccc2)CC1)[C@@H](O)c1ccc(O)cc1
  SmPrx2 inh: >57
  LT uptake inh: u

(further entries)
smiles	SmPrx2 inh	LT uptake inh
O=C(O)C1CCC(=O)N1C1CCCC1 (configuration not stated)	>57	5%
Cc1nnc(NC(=O)CCC(=O)N2CCC(C)CC2)s1	>57	u
Cn1c(CCc2ccccc2)nnc1SCC(=O)N1CCCC1	>57	17%
CCOC(=O)Cc1c(C)nc2c(-c3ccc(Cl)cc3)c[nH]n2c1=O	>57	-14%
CCN(CC)CCN1C(=O)C(=O)/C(=C(/O)c2ccncc2)C1c1ccccc1 (configuration not stated)	>57	-17%
Cc1ccc2oc3c(c(=O)c2c1)C(c1cccs1)N(CCCN(C)C)C3=O (configuration not stated)	>57	3%
O=C(Nc1sc2c(c1C(=O)NCC1CCCO1)CCCC2)c1cccs1 (configuration not stated)	x	-34%
COCCOC(=O)C1=C(C)Nc2ncnn2C1c1ccc(F)cc1 (configuration not stated)	>57	21%
NC(=O)CSc1nnc(-c2ccc(S(=O)(=O)N3CCOCC3)cc2)n1CC1CCCO1 (configuration not stated)	>57	-2%
CCN=C1SC(CC(=O)Nc2sc3c(c2C#N)CCCC3)C(=O)N1CC (configuration not stated)	>57	-1%
OC(CNC1CCCCC1)c1ccccc1 (configuration not stated)	>57	-2%
CCN1C(=O)N(C)C2(c3ccccc3)N(C)C(=O)N(C)C12c1ccccc1 (configuration not stated)	>57	x
COC(=O)c1c(-c2ccc(OC)c(OC)c2)csc1N	>57	-5%
Cc1ccc(CCNC(=O)CN2CCN(Cc3ccccc3F)C2=O)cc1	>57	-16%
Cn1ccnc1Sc1nnnn1-c1ccccc1	>57	u
COc1ccccc1-c1nc2n(n1)C(c1ccccc1Cl)C(C(N)=O)=C(C)N2 (configuration not stated)	>57	2%
CCCOc1c(OC)cccc1C1CC(=O)Nc2cc(OC)c(OC)c(OC)c21 (configuration not stated)	x	-4%
CC1(C)CC(=O)C2=C(C1)N(c1ccccc1)C(N)=C(C#N)C2c1cccnc1 (configuration not stated)	>57	u
O=C1CCCCCC1C1(O)C(=O)Nc2ccccc21 (configuration not stated)	x	-1%
CCCCOC(=O)C1=C(C)Nc2ncnn2C1c1ccc(OC)c(OC)c1OC (configuration not stated)	>57	-4%
CCSP1(=S)N=C(N2CCOCC2)C(C#N)=C2CCCN21 (configuration not stated)	>57	-12%
COc1cc2[nH]c3c(N4CCN(c5ccccn5)CC4)ncnc3c2cc1OC	>57	u
CC(C)N(C(=O)COc1ccc(Br)cc1Cl)C(C)C	x	-15%
COc1ccc(-c2nnc(SC(=O)N3c4ccccc4Sc4ccccc43)o2)cc1	x	u
O=C1c2ccccc2C(=O)N1Cc1nc(-c2ccncc2)no1	>57	x
CC(C)CC(N)C1(c2ccc(Cl)cc2)CCC1 (configuration not stated)	x	u
O=C(NCc1cccnc1)C1CCN(S(=O)(=O)N2CCC3(CC2)OCCO3)CC1	>57	-3%
CCn1cc(C(C)(C)C)c(C#N)c1NC(C)=O	>57	-14%
CCOc1cc(CNc2ncnc3nc[nH]c23)ccc1OC	>57	4%
C=CCn1c(N)c(C(=O)Nc2ccccc2OC)sc1=S	>57	u
O=C(Oc1ccccc1)N1CCC2(CC1)CCN(c1ccccn1)CC2	>57	-21%
CCN(Cc1ccccc1)C(=O)CC1Oc2ccccc2NC1=O (configuration not stated)	>57	-19%

Later entries:
Under each structure: SmPrx2 inh | LT uptake inh
C/C(CCN1CCc2nc(-c3ccccc3)c(-c3ccccc3)cc2C1)=N\OC[C@@H](O)COCc1ccco1
    x | -3%[1.6 µM]
COc1cccc(NC(=O)CSc2nnc(-c3cc(C)n(-c4ccccc4)c3C)o2)c1
    >57 | u
O=S(=O)(CCc1ccccc1)/N=C/c1cccs1
    >57 | 10%
O=C1c2cccc3cccc(c23)C(=O)N1c1cccnc1
    >57 | u
Cc1ccc(S(=O)(=O)N2CCCC2C(=O)N(C)Cc2cccs2)cc1 (configuration not stated)
    >57 | 2%
CCn1cc(SCC(=O)NCC2CCCO2)c2ccccc21 (configuration not stated)
    >57 | 11%
COc1ccc(C(=O)c2ccc(N3CCN(C4CC(=O)NC4=O)CC3)cc2)cc1F (configuration not stated)
    >57 | 16%
Cc1ccc2nc(-c3ccccn3)cc(C(=O)NC3CCN(C)CC3)c2c1
    >57 | -2%
CCOC(=O)CC1=C(C(=O)OCC)C2(C(=O)Nc3ccccc32)C(C#N)=C(N)O1 (configuration not stated)
    >57 | -5%
CCOC(=O)Cn1cnc2c(nnn2-c2ccc(C)cc2)c1=O
    >57 | u
CCOC(=O)c1cc(-c2cccs2)nn1CCC#N
    >57 | x
Nc1ncc(-c2cc3ccccc3oc2=O)s1
    >57 | 4%
COc1ccc(-c2nnc(CSc3ncnc4sc5c(c34)CCC5)o2)cc1OC
    >57 | -7%
Cc1nc(SCc2ccccc2)c(C(F)(F)F)c(=O)[nH]1
    >57 | u
CCN(CC)CCCC(C)NC1=NCCCCC1 (configuration not stated)
    >57 | -2%
Cc1ccc(C(=O)OCc2cn3ccccc3n2)cc1
    >57 | 9%
CC(=O)Nc1ccc(S(=O)(=O)Nc2nnc(C3CCCCC3)s2)cc1
    >57 | 13%
O=C(c1cnccn1)N1CCC2(CCCN(c3ccccn3)C2)CC1
    >57 | 4%
CCOCCCN1C(=O)CN(C2CCCCC2)C(=O)C1c1ccc(OC)c(OC)c1 (configuration not stated)
    >57 | u
CCSCCNC(=O)c1cc(-n2cnnc2)ccc1Cl
    >57 | 9%
CCOc1ccc(NC(=O)C(C)Sc2nnc(C)n2C)cc1 (configuration not stated)
    >57 | 1%
C(=C\CSc1nnnn1-c1ccccc1)/CSc1nnnn1-c1ccccc1
    x | u
COC(=O)[C@@H]1[C@@H](O)[C@@]2(O)c3c(OC)cc(OC)cc3O[C@@]2(c2ccc(OC)cc2)[C@H]1c1ccccc1
    x | u
Cc1cc(C)n(-c2ccc(C(=O)NCc3ccc4c(c3)OCO4)cc2)n1
    >57 | 4%
CC(=O)Nc1cccc(Oc2ccc(-c3noc(C)n3)cc2)c1
    >57 | -8%
Cc1ccc(Cn2c(SCC(N)=O)nc3c2c(=O)n(C)c(=O)n3C)cc1
    >57 | -2%
O=c1c2ccccc2nc(SCc2nc3ccccc3s2)n1Cc1ccco1
    >57 | u
c1ccc2c(N3CCNCC3)nc(-c3ccoc3)nc2c1
    >57 | -4%
CCOc1ccc(C)cc1S(=O)(=O)NC1CCCCC1
    x | -20%
CN(CCCC(=O)Nc1ccncc1)S(=O)(=O)c1ccc(Cl)cc1
    >57 | 4%
CCCCc1c(O)nc(SCC(=O)NCC2CCCO2)[nH]c1=O (configuration not stated)
    >57 | u
CC(=O)c1c(C)[nH]c(C(=O)COC(=O)CNS(=O)(=O)c2ccccc2)c1C
    >57 | 2%
COc1cccc(NC(=O)N2CCN(c3ccc(C(F)(F)F)cn3)CC2)c1
    >57 | 5%
C=CCn1c(SCC(=O)NCCCC)nc2scc(-c3ccco3)c2c1=O
    >57 | -20%
CC(=O)c1c(C)[nH]c(C(=O)OCn2nnc3ccccc3c2=O)c1C
    >57 | -13%
CCOCCCNC(=O)CSc1ccccc1
    >57 | 6%
Cc1ccc(-c2nn(-c3ccccc3)cc2/C=C(\C#N)c2cccc(C#N)c2)o1
    >57 | -13%
O=C(NCc1ccco1)Nc1cccs1
    >57 | u
O=C(CSc1nc2c(cnn2-c2ccc(F)cc2)c(=O)[nH]1)N1CCCCC1
    >57 | 22%
CCCNc1nc(N2CCOCC2)nc(N2CCOCC2)n1
    >57 | -13%
O=C(CSc1nc2ccccc2o1)Nc1ccccc1N1CCCCCC1
    >57 | u
S=c1[nH]nc(COc2ccc3c(c2)OCO3)n1-c1ccccc1
    >57 | -4%
CCN1CCN(c2ncnc3c2oc2nc(C(C)C)c4c(c23)CCC4)CC1
    >57 | -2%
CCOC(=O)c1c(C)[nH]c(C(=O)Nc2ccc3c(c2)OCO3)c1C
    >57 | 6%
COCC(=O)Nc1nc2n(n1)C(c1ccccc1Cl)CC(c1ccc(OC)cc1)N2 (configuration not stated)
    >57 | 4%
N#Cc1cn(Cc2ccccc2)c2ccccc12
    >57 | -12%
Cc1ccc2c(CC(=O)NCC3COc4ccccc4O3)coc2c1 (configuration not stated)
    >57 | -11%
COc1ccc(NC(=O)C(C)Oc2ccc(/C(C)=N\O)cc2)cc1 (configuration not stated)
    >57 | x
Cc1cc(C(=O)Nc2c(C)nn(Cc3c(Cl)cccc3Cl)c2C)no1
    >57 | -1%
O=C(C1CCN(S(=O)(=O)c2cccc3cccnc23)CC1)N1CCN(c2ccccn2)CC1
    >57 | 19%
COc1cc(C(=O)Nc2ccc3c(c2)OCCO3)ccc1-n1cnnn1
    >57 | -16%
CCOC(=O)COc1cccc2c(=O)n(CC(=O)NCc3ccc4c(c3)OCO4)ccc12
    >57 | -3%
CC1(C)CC(=O)c2cc(OCC(=O)O)ccc2O1
    >57 | 7%
COc1ccc(OC)c(S(=O)(=O)N2CCCc3ccccc32)c1
    x | u
N#Cc1nc(Cc2cccc3ccccc23)oc1N1CCC(C(N)=O)CC1
    >57 | -4%
COCCn1c(=O)c(-c2cn(C)c3ccccc23)nc2cnc(N3CCNCC3)nc21
    >57 | u
CC(Sc1nnc(-c2ccc(Cl)cc2)n1C)C(N)=O (configuration not stated)
    >57 | -10%
CCCN(CCc1ccccc1)[C@H]1CCc2c(O)cccc2C1
    >57 | 6%
CSc1nnc(-c2ccc(S(=O)(=O)N3CCCC3)cc2)n1C
    >57 | 8%
COc1ccc(C(=O)Nc2nnc(-c3ccccc3)o2)cc1OC
    >57 | 1%

Next entries.
Under each structure: SmPrx2 inh | LT uptake inh
CN(C)c1ccc(C2N3CC4(C)CN2CC(C)(C3)C4O)cc1 (configuration not stated)
    >57 | -2%
CCOCCCn1c(=S)[nH]c2cc(C(=O)N3CCN(C)CC3)ccc2c1=O
    >57 | 1%
CCn1c(CSc2nc(C)cs2)nc2cc(S(=O)(=O)N(C)C)ccc21
    >57 | 2%
COc1ccc(C2NC(c3ccc(OC)c(OC)c3OC)C(C)C(=O)C2C)c(OC)c1OC (configuration not stated)
    >57 | 6%
